Screening results as filed in PubChem.
UCH37 DUB inh: inhibitors of human UCH37 deubiquitinase, primary screen, biochemical, Ub-AMC cleavage, fluorescence; inhibition, % (no concentration beside the values); actives 0.33% (n = 330,000); purified proteasome/UCH37; Ubiquitin carboxyl-terminal hydrolase isozyme L5 (Homo sapiens), Q9Y5K5; AID 588478, 2011;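 active = mean of two replicates above 20%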;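 also: 0% = compound-free wells with enzyme and 100% = wells lacking proteasome; stock transfer was 100 nL into about 20 µL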
Target sequence (Q9Y5K5 whole entry, looked up): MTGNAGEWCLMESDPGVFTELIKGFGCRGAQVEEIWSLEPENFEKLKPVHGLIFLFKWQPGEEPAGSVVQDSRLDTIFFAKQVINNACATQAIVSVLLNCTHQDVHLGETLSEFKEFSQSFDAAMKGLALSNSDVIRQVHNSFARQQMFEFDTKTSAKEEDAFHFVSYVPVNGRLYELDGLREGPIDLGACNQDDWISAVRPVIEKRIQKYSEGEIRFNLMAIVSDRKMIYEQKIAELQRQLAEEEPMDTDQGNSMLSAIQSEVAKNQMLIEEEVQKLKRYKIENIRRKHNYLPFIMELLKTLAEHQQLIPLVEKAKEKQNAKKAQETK
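assay system = human UCH37 enzyme supplied as purified proteasome complex | amount = proteasome at 0.15 nM in the dispensed enzyme solution | schedule = 30 min compound-proteasome preincubation then 25 min substrate reaction, room temperature | measured by = fluorescence, ex 355 nm, em 460 nm | benchmarks = no-proteasome wells (full inhibition) and compound-free wells (no inhibition)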
Beta2AR agonist: beta2AR agonists driving receptor internalization, primary screen, cell-based, FAP fluorogen, flow cytometry; Beta-2 adrenergic receptor (Homo sapiens), P07550; Am2.2-beta2AR cells; reference of the scale not given here; response, % (test concentration not listed); actives 0.43% (n = 340,000);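 active = response above a set limit, near 3 SD of response in nonfluorescent compounds, cut at about 42% in these data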;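 also: stock transfer was 100 nL into about 11 µL; a reference agonist was the positive control; negative values mostly stem from fluorescent compounds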
Target sequence (P07550 whole entry, looked up): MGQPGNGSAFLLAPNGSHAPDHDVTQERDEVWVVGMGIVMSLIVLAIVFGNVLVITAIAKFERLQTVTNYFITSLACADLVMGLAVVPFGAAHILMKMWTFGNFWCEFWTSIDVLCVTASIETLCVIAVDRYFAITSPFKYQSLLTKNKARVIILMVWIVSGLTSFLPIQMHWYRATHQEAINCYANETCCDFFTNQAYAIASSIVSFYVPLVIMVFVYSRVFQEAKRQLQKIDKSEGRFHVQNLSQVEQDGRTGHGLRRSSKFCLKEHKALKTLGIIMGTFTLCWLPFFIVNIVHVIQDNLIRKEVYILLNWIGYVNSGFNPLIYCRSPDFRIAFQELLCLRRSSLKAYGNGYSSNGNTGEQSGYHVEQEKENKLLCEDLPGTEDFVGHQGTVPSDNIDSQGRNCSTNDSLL
ALR H2O2 inh: inhibitors of human ALR sulfhydryl oxidase, primary screen, biochemical, H2O2 detection, HRP-luminol luminescence, single point; actives 3.8% (n = 290,000); FAD-linked sulfhydryl oxidase ALR (Homo sapiens), P55789; purified ALR, DTT oxidation; AID 485317, 2010; inhibition, % (test concentration not listed);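 active = mean and each replicate at 75% or more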;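 also: stock transfer was 7.5 nL into about 7.5 µL; 0% = neutral wells and 100% = wells with inactivated enzyme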
HNF4A DNA FP: change in binding of human HNF4A to DNA, primary screen, biochemical, fluorescence polarization, FITC-DNA. Hepatocyte nuclear factor 4-alpha (Homo sapiens), P41235. 1 h. activity change, % at 10 µM. actives 0.3% (n = 360,000). AID 1224865, 2016; in the data active = activity change above about 30%, passing the limit was not always enough;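 also: controls were the assay level and a saturating level of protein; the project sought stronger binding though the title names inhibitors; some compounds called inactive have numbers as strong as hits; positive values seem to mean higher polarization but the record does not say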
Ecoli growth: E. coli growth inhibition, primary screen, OD600. Escherichia coli growth, 23 h; active compounds read low. actives 0.21% (n = 330,000). AID 1053175, 2014. OD600 absorbance (test concentration not listed);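 active = OD600 absorbance below the run mean of sample wells minus 3.6 SD, in any replicate, cut at about 0.56 in these data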;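 also: stock transfer was 300 nL into about 60 µL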
Ecoli rRNA inh: reduced GFP signal of wild-type E. coli, primary screen, bacterial rRNA inhibitor project, GFP/RFP fluorescence, OD600, single point | E. coli WT GFP vs humanized-ribosome RFP mutants, 24 h; active compounds read low; DMSO median 0, no signal -100 | GFP signal change (wild-type ribosome), % (test concentration not listed) | actives 1.6% (n = 350,000) | AID 720706, 2013;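 active = significant combined selectivity score with lowered wild-type GFP, culture density cut under 30%, mutant RFP and density less affected; inactive = any of these conditions unmet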; also: one replicate is shown; some compounds called inactive have numbers as strong as hits
FGF22 binding: binders of human FGF22 protein, primary screen, FGF22 synaptogenesis inhibitor project, biophysical, thermal shift, single point | recombinant FGF22 thermal shift, SYPRO orange fluorescence; percent of sucrose octasulfate shift, DMSO zero | actives 1.5% (n = 340,000) | calls only at 9.99 µM | AID 651658, 2012 | Fibroblast growth factor 22 (Homo sapiens), Q9HCT0;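 active = melting point raised past a set limit in the mean and every replicate; three in four hits are not shown here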
Target sequence (Q9HCT0 whole entry, looked up): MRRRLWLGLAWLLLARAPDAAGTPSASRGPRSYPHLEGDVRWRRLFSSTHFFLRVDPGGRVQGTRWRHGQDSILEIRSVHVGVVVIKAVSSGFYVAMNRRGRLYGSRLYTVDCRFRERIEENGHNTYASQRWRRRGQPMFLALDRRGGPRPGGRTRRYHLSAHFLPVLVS
Ecoli rRNA inh OD600: recorded beside Ecoli rRNA inh, whose call it bears; OD600 change, %; measured here: OD600 growth;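 optical density of the mix in the first replicate; 0 = DMSO median and -100 = no signal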
Ecoli rRNA inh RFP: also measured in Ecoli rRNA inh; calls as there; RFP signal change, %; measured here: RFP humanized mutant strains;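 first replicate; 0 = DMSO median and -100 = no signal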
Active calls of the source: *. Not all compounds are listed; rates above refer to the full screens.

For CCOC(=O)c1c(NC(=O)Nc2ccc(F)cc2)sc2c1CCN(C)C2 the results were UCH37 DUB inh -2.1, Beta2AR agonist -8.0, ALR H2O2 inh 5.4, HNF4A DNA FP 13.8, Ecoli growth 0.675, Ecoli rRNA inh -11.2, FGF22 binding inactive, Ecoli rRNA inh OD600 -14.4 and Ecoli rRNA inh RFP -6.7.
For CC(=O)c1cc(-c2ccccc2)n(CC(=O)N2CCCCC2)c1C the results were UCH37 DUB inh 1.7, Beta2AR agonist 5.2, ALR H2O2 inh -37.3, HNF4A DNA FP 1.9 and Ecoli growth 0.644.
CCN(CC)CCCNC(=O)c1ccc(CS(=O)(=O)c2ccccc2OC)o1 was read as UCH37 DUB inh 2.9, Beta2AR agonist 1.5, ALR H2O2 inh -20.1, HNF4A DNA FP 1.7, Ecoli growth 0.675, Ecoli rRNA inh 12.1, FGF22 binding inactive, Ecoli rRNA inh OD600 19.8 and Ecoli rRNA inh RFP -0.9.
COc1ccc(CN2CCN(S(=O)(=O)c3ccccc3)CC2)c(OC)c1 was read as UCH37 DUB inh 5.1, Beta2AR agonist -0.9, ALR H2O2 inh -8.6, HNF4A DNA FP 6.1 and Ecoli growth 0.695.
Screening COc1ccccc1-c1csc(C(NC(C)=O)c2ccccc2)n1 (stereo not drawn) returned HNF4A DNA FP -3.3, Ecoli rRNA inh 1.0, FGF22 binding inactive, Ecoli rRNA inh OD600 2.4 and Ecoli rRNA inh RFP 8.2.
COc1ccc(-c2cc(NC=O)c3ncc(-c4ccc(C(C)=O)cc4)n3c2)cc1OC was read as HNF4A DNA FP 4.7, Ecoli rRNA inh 7.9, FGF22 binding inactive, Ecoli rRNA inh OD600 12.7 and Ecoli rRNA inh RFP 3.1.
Screening COCCC(=O)N1CCC(Oc2ccc(C(=O)N3CCCC(OC)C3)cc2)CC1 (stereo not drawn) returned UCH37 DUB inh 1.1, Beta2AR agonist 1.0, ALR H2O2 inh -4.4, HNF4A DNA FP 4.2, Ecoli growth 0.644, Ecoli rRNA inh 2.5, FGF22 binding inactive, Ecoli rRNA inh OD600 -0.4 and Ecoli rRNA inh RFP -4.9.
For O=C(Nc1ccc(S(=O)(=O)N2CCOCC2)cc1)c1cc(-c2ccccc2O)n[nH]1 the results were UCH37 DUB inh 1.6, Beta2AR agonist 14.1, ALR H2O2 inh 16.6, HNF4A DNA FP -0.8, Ecoli growth 0.693, Ecoli rRNA inh -8.5, FGF22 binding inactive, Ecoli rRNA inh OD600 3.6 and Ecoli rRNA inh RFP -4.1.
For CC(=O)c1c(C)[nH]c(C(=O)COC(=O)CN(C)S(=O)(=O)c2ccc(Cl)cc2)c1C the results were UCH37 DUB inh -0.9, Beta2AR agonist 1.1, ALR H2O2 inh -0.4, HNF4A DNA FP 0.6 and Ecoli growth 0.714.
For CC(C)Cn1c(N)c(C(=O)COC(=O)c2nccnc2N)c(=O)n(C)c1=O the results were UCH37 DUB inh inactive, Beta2AR agonist 2.9, HNF4A DNA FP -0.2, Ecoli growth 0.605, Ecoli rRNA inh 9.7, FGF22 binding inactive, Ecoli rRNA inh OD600 14.0 and Ecoli rRNA inh RFP -2.9.
`O=C(NC(Cc1ccccc1)C(=O)N1CCN(c2ccccn2)CC1)c1ccco1` (stereo not drawn) gave UCH37 DUB inh 6.6, Beta2AR agonist 19.9, ALR H2O2 inh 0.2, HNF4A DNA FP 4.2 and Ecoli growth 0.728.
Screening Cc1n[nH]c(C)c1Sc1ccccc1[N+](=O)[O-] returned UCH37 DUB inh 7.8, Beta2AR agonist 1.1, ALR H2O2 inh -4.7, HNF4A DNA FP -0.2, Ecoli growth 0.689, Ecoli rRNA inh -33.5*, FGF22 binding inactive, Ecoli rRNA inh OD600 8.3* and Ecoli rRNA inh RFP -4.0*.
Screening COc1cc(-c2noc(C)c2C(=O)NCCCN2CCCC2=O)cc(OC)c1OC returned UCH37 DUB inh 2.2, Beta2AR agonist 4.4, ALR H2O2 inh -4.7, HNF4A DNA FP 1.9, Ecoli growth 0.645, Ecoli rRNA inh 6.2, FGF22 binding inactive, Ecoli rRNA inh OD600 8.7 and Ecoli rRNA inh RFP 1.1.
CCCCc1nnc(SCCSc2nnc(CCCC)n2N)n1N was read as UCH37 DUB inh 1.2, Beta2AR agonist 3.3, ALR H2O2 inh -9.9, HNF4A DNA FP -3.0 and Ecoli growth 0.728.
Screening COc1ccc(CNC(=O)CN2C(=O)c3ccc([N+](=O)[O-])cc3C2=O)cc1 returned UCH37 DUB inh 1.6, Beta2AR agonist -4.7, HNF4A DNA FP 0.7, Ecoli growth 0.649, Ecoli rRNA inh 0.1, FGF22 binding inactive, Ecoli rRNA inh OD600 7.5 and Ecoli rRNA inh RFP 0.4.
`CCOC(=O)c1nnn2c1nc(N1CCOCC1)c1ccccc12` gave UCH37 DUB inh 7.6, Beta2AR agonist -3.6, ALR H2O2 inh -0.6, HNF4A DNA FP -2.9, Ecoli growth 0.699 and FGF22 binding inactive.
Screening CC(C)CC(=O)NC(NC(=S)Nc1ccccc1)C(Cl)(Cl)Cl (stereo not drawn) returned UCH37 DUB inh 2.6, Beta2AR agonist 3.3, ALR H2O2 inh -2.9, HNF4A DNA FP -3.5, Ecoli growth 0.692, Ecoli rRNA inh 8.0, FGF22 binding inactive, Ecoli rRNA inh OD600 3.5 and Ecoli rRNA inh RFP 2.3.
For O=C(O)c1cc(N/N=C/c2cccc3ccccc23)ccc1Cl the results were Beta2AR agonist 8.3, HNF4A DNA FP -1.3, Ecoli rRNA inh -1.7, FGF22 binding inactive, Ecoli rRNA inh OD600 -8.2 and Ecoli rRNA inh RFP -0.9.
Screening CCOc1ccc(C(=O)NN2CCOCC2)cc1 returned UCH37 DUB inh -0.8, Beta2AR agonist -2.6, ALR H2O2 inh 16.0, HNF4A DNA FP 4.5, Ecoli growth 0.693, Ecoli rRNA inh 5.0, FGF22 binding inactive, Ecoli rRNA inh OD600 5.9 and Ecoli rRNA inh RFP 0.4.
For CCOC(=O)C1=C(CC)OC(N)=C(C#N)C1c1ccc(OC)c(OC)c1OC (stereo not drawn) the results were UCH37 DUB inh 9.7, Beta2AR agonist 6.0, ALR H2O2 inh -7.8, HNF4A DNA FP 1.7, Ecoli growth 0.664, Ecoli rRNA inh 11.9, FGF22 binding inactive, Ecoli rRNA inh OD600 9.3 and Ecoli rRNA inh RFP -5.1.
COC(=O)CCC(=O)N1CCOCCOCCN(C(=O)CCC(=O)OC)CCOCCOCC1 was read as UCH37 DUB inh 2.7, Beta2AR agonist -5.4, ALR H2O2 inh -6.7, HNF4A DNA FP -0.8 and Ecoli growth 0.698.
`CN(Cc1ccccc1)C(=O)C1CCCN1S(=O)(=O)c1ccc2c(c1)n(C)c(=O)c(=O)n2C` (stereo not drawn) gave UCH37 DUB inh -4.2, Beta2AR agonist -5.6, ALR H2O2 inh 0.5, HNF4A DNA FP -6.5, Ecoli growth 0.644, Ecoli rRNA inh -0.3, FGF22 binding inactive, Ecoli rRNA inh OD600 15.5 and Ecoli rRNA inh RFP 8.4.
`CCCCN(C(=O)CSCC(=O)Nc1ccc(OC)cc1)c1c(N)n(CC(C)C)c(=O)[nH]c1=O` gave UCH37 DUB inh -1.7, Beta2AR agonist -0.4, HNF4A DNA FP 0.0, Ecoli growth 0.705, Ecoli rRNA inh -3.0, Ecoli rRNA inh OD600 6.1 and Ecoli rRNA inh RFP 1.9.
`COC(=O)[C@@]1(Cc2ccc(OC)cc2)[C@H]2c3cc(C(=O)N4CCCC4)n(Cc4c(CO)[nH]cc(C)c4=O)c3C[C@H]2CN1C(=O)c1ccccc1` gave UCH37 DUB inh 4.2, ALR H2O2 inh 22.1, Ecoli rRNA inh 8.2, FGF22 binding inactive, Ecoli rRNA inh OD600 -7.6 and Ecoli rRNA inh RFP 1.1.
CC[C@H](C)Cc1cn([C@@H](CCCN=C(NC(=O)OC(C)(C)C)NC(=O)OC(C)(C)C)C(=O)NCCCCCCCCCCC(=O)N2CCN(C(=O)OC(C)(C)C)CC2)nn1 was read as UCH37 DUB inh 4.8, Beta2AR agonist 8.8, ALR H2O2 inh -17.0 and HNF4A DNA FP 2.6.
Screening O=C(COC(=O)/C=C/c1cccc(C(F)(F)F)c1)NC(=O)NC1CCCC1 returned UCH37 DUB inh 2.3, Beta2AR agonist 2.2, HNF4A DNA FP 3.8, Ecoli growth 0.681, Ecoli rRNA inh 6.5, FGF22 binding inactive, Ecoli rRNA inh OD600 6.9 and Ecoli rRNA inh RFP 0.6.
Screening COc1cccc(C2=NOC(C(=O)NCCN3CCOCC3)C2)c1 (stereo not drawn) returned UCH37 DUB inh 2.1, Beta2AR agonist -1.8, ALR H2O2 inh -2.4, HNF4A DNA FP 4.1 and Ecoli growth 0.646.
OCC1(Cc2cccc(Cl)c2)CCCN(Cc2ccc3cc(F)ccc3n2)C1 (stereo not drawn) was read as UCH37 DUB inh -2.2, Beta2AR agonist 2.7, ALR H2O2 inh -24.6, HNF4A DNA FP 1.3, Ecoli growth 0.713, Ecoli rRNA inh -25.8, FGF22 binding inactive, Ecoli rRNA inh OD600 -47.4 and Ecoli rRNA inh RFP -1.6.
Cn1c(SCC(=O)N2CCCc3ccccc32)nnc1-c1c[nH]c2ccccc12 was read as UCH37 DUB inh -3.6, Beta2AR agonist 4.1, ALR H2O2 inh 3.1, HNF4A DNA FP 0.1 and Ecoli growth 0.721.
`COc1cc(O)c(C(C)=O)cc1OC` gave UCH37 DUB inh 5.0, Beta2AR agonist -4.4, ALR H2O2 inh -8.9, HNF4A DNA FP 2.5 and Ecoli growth 0.697.
`CC1Cc2ccccc2N1C(=S)NC(=O)c1ccc(Cl)cc1Cl` (stereo not drawn) gave UCH37 DUB inh 1.7, Beta2AR agonist 5.9, ALR H2O2 inh 17.7, HNF4A DNA FP -0.5, Ecoli growth 0.69, Ecoli rRNA inh -58.2, FGF22 binding inactive, Ecoli rRNA inh OD600 -76.0 and Ecoli rRNA inh RFP -30.1.
For Cc1ccc(N(C(=O)CNC(=O)c2ccco2)C(C(=O)NC2CCCC2)c2ccncc2)cc1F (stereo not drawn) the results were UCH37 DUB inh 0.3, Beta2AR agonist -2.4, ALR H2O2 inh -0.5, HNF4A DNA FP -0.3, Ecoli growth 0.646, Ecoli rRNA inh 11.0, FGF22 binding inactive, Ecoli rRNA inh OD600 8.9 and Ecoli rRNA inh RFP -0.8.
CCCn1cnc2sc(CC)cc2c1=O was read as UCH37 DUB inh -2.5, Beta2AR agonist 0.4, ALR H2O2 inh -1.9, HNF4A DNA FP 2.6 and Ecoli growth 0.641.
O=[N+]([O-])c1cccc(-c2ccc(CN3CCCCC3)o2)c1 was read as UCH37 DUB inh -0.2, Beta2AR agonist -2.1, ALR H2O2 inh -4.9, HNF4A DNA FP 1.3, Ecoli growth 0.64, Ecoli rRNA inh 3.3, FGF22 binding inactive, Ecoli rRNA inh OD600 3.4 and Ecoli rRNA inh RFP 0.7.
